rRNA inh HTS = reduced GFP signal of wild-type E. coli, primary screen, bacterial rRNA inhibitor project, GFP/RFP fluorescence, OD600, single point. E. coli WT GFP vs humanized-ribosome RFP mutants, 24 h; active compounds read low; DMSO median 0, no signal -100. GFP signal change (wild-type ribosome), % (test concentration not listed). 1.6% of 350,000 active;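 active means significant combined selectivity score with lowered wild-type GFP, culture density cut under 30%, mutant RFP and density less affected; inactive means any of these conditions unmet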; further: one replicate is shown; some compounds called inactive have numbers as strong as hits
MLL AF4-AF9 inh = inhibitors of AF4 peptide binding to AF9, primary screen, biochemical, AlphaScreen, biotin-AF4 peptide, FLAG-AF9, single point. Protein AF-9 (Homo sapiens), P42568. inhibition, % at 10 µM. 0.47% of 350,000 active. AID 651704, 2012;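 active means every replicate reaching a set inhibition limit, whatever the replicate mean, cut at about 25% in these data; inconclusive means mean inhibition reaches that limit but some replicates miss it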;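 further: 0% = plate neutral control median and 100% = total signal loss; the record names both 10 and 1 µM as test concentration; the first replicate is given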
Target sequence (P42568 whole entry, looked up): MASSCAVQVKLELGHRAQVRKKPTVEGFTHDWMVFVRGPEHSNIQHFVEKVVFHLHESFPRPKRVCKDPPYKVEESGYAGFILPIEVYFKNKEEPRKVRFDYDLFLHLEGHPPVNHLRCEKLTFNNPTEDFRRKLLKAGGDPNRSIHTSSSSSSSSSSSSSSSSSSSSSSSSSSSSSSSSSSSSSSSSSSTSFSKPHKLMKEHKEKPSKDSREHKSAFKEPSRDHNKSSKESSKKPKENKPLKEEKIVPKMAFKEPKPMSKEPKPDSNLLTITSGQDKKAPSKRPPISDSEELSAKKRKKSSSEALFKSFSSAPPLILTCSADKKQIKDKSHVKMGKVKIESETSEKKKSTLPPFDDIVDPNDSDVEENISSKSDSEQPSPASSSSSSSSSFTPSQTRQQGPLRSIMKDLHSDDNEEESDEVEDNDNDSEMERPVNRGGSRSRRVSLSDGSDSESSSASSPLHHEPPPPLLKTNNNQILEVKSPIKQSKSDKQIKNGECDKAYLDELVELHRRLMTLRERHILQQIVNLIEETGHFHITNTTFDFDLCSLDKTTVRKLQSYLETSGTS
rRNA inh HTS OD600 = further read-out of rRNA inh HTS, marked with its call; OD600 change, %; measured here: OD600 growth;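 optical density of the mix in the first replicate; 0 = DMSO median and -100 = no signal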
rRNA inh HTS RFP = second read-out of rRNA inh HTS, no call of its own (marks repeat the call); RFP signal change, %; measured here: RFP humanized mutant strains;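 first replicate; 0 = DMSO median and -100 = no signal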
* hit, by the source's call; ? = inconclusive; & = joins results of further samples.

SMILES	rRNA inh HTS	rRNA inh HTS OD600	rRNA inh HTS RFP	MLL AF4-AF9 inh
O=C(O)c1cc(N2N=C(C(F)(F)F)/C(=C/C=C/c3ccco3)C2=O)ccc1Cl	13	29	2.8	-9.2
CC(C)c1cn(CC[C@H]2CC[C@H](NC(=O)Nc3cc(Cl)cc(Cl)c3)[C@H](CO)O2)nn1	-9	-9	8.2	-0.4
CN(C)C(=O)[C@H]1[C@H](CO)[C@H]2Cn3c(ccc(C4=CCCC4)c3=O)[C@@H]1N2CCC(F)(F)F	1	8	-2.8	-1.9
CCCC(=O)N1CC2(CN[C@H](CO)c3c2c2ccc(OC)cc2n3C)C1	1	2	-1.5	-0.7
CN(Cc1ccc2c(c1)CCCN2C)C(=O)[C@H]1O[C@@H](n2ccc(=O)[nH]c2=O)[C@H](O)[C@@H]1O	10	10	1.0	2.6
COc1ccc(S(=O)(=O)N(C)C[C@H]2Oc3ccc(N(C)C)cc3C(=O)N([C@@H](C)CO)C[C@@H]2C)cc1	-1	-2	0.1	1.5
CCCC#Cc1ccc([C@@H]2[C@H]3CN(S(=O)(=O)c4ccccc4C)CC(=O)N3[C@H]2CO)cc1	-1	-5	3.1	-1.0
Cc1noc(C)c1NC(=O)N(C)C[C@@H]1OCCCC[C@H](C)Oc2ccc(NS(=O)(=O)c3ccccc3)cc2C(=O)N([C@H](C)CO)C[C@@H]1C	-2	-3	0.6	-4.6
O=C(CC1CC1)N1CC(=O)N2[C@H](CO)[C@@H](c3ccc(C#Cc4ccc(F)cc4)cc3)[C@H]2C1	-10	-44	11	-3.1
CCCNC(=O)N1CC2(CCN(Cc3ccc(F)cc3)CC2)c2c([nH]c3cc(OC)ccc23)[C@@H]1CO	-4	0	1.4	30*
CN1c2ccc(C3=CCCCC3)cc2[C@H]2[C@H](CCN2C(=O)C2CCC2)[C@@H]1CO	-3	-17	20	20
CCCNC(=O)N1CC2(CN(C(=O)c3ccncc3)C2)c2c([nH]c3cc(OC)ccc23)[C@@H]1CO	3	-5	1.2	3.2
O=C(CN1CCOCC1)N1CCCCN2[C@@H](CO)[C@H](c3ccc(C#Cc4ccccc4F)cc3)[C@@H]2C1	5	-14	21	-0.3
O=C(c1cccnc1)N1CC[C@@H]2[C@H](CO)Nc3ccc(C4=CCCCC4)cc3[C@@H]21	-6	3	2.9	13
C[C@H](CO)N1C[C@H](C)[C@@H](CN(C)C(=O)Nc2ccc(F)cc2)OCCCC[C@H](C)Oc2ccc(NS(=O)(=O)c3ccc(Cl)cc3)cc2C1=O	1	3	0.2	-3.8
O=C(c1ccccc1F)N1CC(=O)N2[C@@H](CO)[C@H](c3ccc(C#Cc4ccccc4)cc3)[C@@H]2C1	-23	-56	31	-3.6
O=C(NC1CCCC1)[C@H]1[C@H](CO)[C@H]2Cn3c(cccc3=O)[C@H]2N1CC1CCOCC1	5	-3	-0.5	-4.0
CCNC(=O)C[C@H]1CC[C@H]2[C@@H](COC[C@H](O)CN2C(=O)C2CC2)O1	-1	3	-5.1	-1.1
OC[C@@H]1[C@H](c2ccc(-c3ccc(F)cc3)cc2)[C@H](CNC2CCCC2)N1CCC(F)(F)F	-58	-81	-19	1.9
Cc1ccc(S(=O)(=O)Nc2ccc3c(c2)C(=O)N([C@@H](C)CO)C[C@H](C)[C@@H](CN(C)C(=O)Cc2ccccc2)OCCCC[C@H](C)O3)cc1	0	-5	5.3	3.1
c1cncc(-c2ccc(C3[C@H]4CNC[C@@H]3N4CC3CCCCC3)cc2)c1 (some centres not stated)	3	3	1.6	?
C[C@@H]1CN([C@H](C)CO)C(=O)c2cc(NS(=O)(=O)c3ccc(Cl)cc3)ccc2O[C@@H]1CN(C)CC1CC1	2	3	-1.7	0.1
CCCC#Cc1ccc([C@@H]2[C@@H](CO)N3C(=O)CN(C(=O)c4ccccc4)C[C@H]23)cc1	5	-1	4.1	3.1
O=C(NC1CCCCC1)N1CC(=O)N2[C@@H](CO)[C@H](c3ccc(-c4ccncc4)cc3)[C@@H]2C1	-1	10	1.2	-2.5
CN1c2ccc(-c3ccccc3)cc2[C@@H]2[C@@H](CCN2C(=O)NC2CCCCC2)[C@@H]1CO	-23	-43	3.8	23
COCC#Cc1ccc([C@H]2[C@@H](CO)N3C(=O)CN(C(=O)Nc4ccccc4F)C[C@H]23)cc1	1	-8	-0.9	-3.4
C/C=C/c1ccccc1[C@@H]1[C@H](C#N)N(c2nc(CC)cs2)[C@H]1CO	-10	-32	-2.7	4.2
C[C@@H]1CCCCO[C@@H](CN(C)Cc2ccc3c(c2)OCO3)[C@H](C)CN([C@H](C)CO)C(=O)c2cc(NS(=O)(=O)c3ccc(Cl)cc3)ccc2O1	4	-39	29	10
COCCNC(=O)[C@H]1[C@H](CO)[C@H]2Cn3c(ccc(C4=CCCCC4)c3=O)[C@@H]1N2C(=O)C1CC1	-1	-8	-2.3	-1.2
O=C([C@H]1[C@H](CO)[C@H]2Cn3c(cccc3=O)[C@@H]1N2C(=O)CC1CC1)N1CCc2ccccc2C1	1	4	-0.7	-6.3
COCC(=O)N1CCC2(CC1)CN(Cc1ccccc1Cl)[C@H](CO)c1[nH]c3cc(OC)ccc3c12	7	3	-0.2	-3.6
O=C(C[C@@H]1C=C[C@H](NS(=O)(=O)c2ccc(F)cc2)[C@@H](CO)O1)NCc1ccccc1F	-1	-3	-1.0	-4.0
COc1ccc(S(=O)(=O)N2CCOCC2)cc1NC(=O)c1ccc(=O)[nH]c1	10	3	1.0	-1.5
CC(C)NC(=O)N(C)C[C@@H]1OCCCC[C@H](C)Oc2ccc(NC(=O)Nc3ccccc3)cc2C(=O)N([C@@H](C)CO)C[C@H]1C	1	1	1.9	2.2
COc1cccc(-c2ccc(C3[C@H]4CNC[C@@H]3N4Cc3cncnc3)cc2)c1 (some centres not stated)	3	-7	-0.9	9.6
O=S(=O)(c1ccccc1)N1C[C@@H]2N[C@H](C1)C2c1ccc(-c2cccnc2)cc1 (some centres not stated)	-5&1	-8&13	1.3&0.2	-2.1&-3.3
COc1cccc(NC(=O)N2CC(=O)N3[C@H](CO)[C@@H](c4ccc(C#CC5CCCCC5)cc4)[C@H]3C2)c1	1	2	1.3	7.5
COc1ccc2c3c([nH]c2c1)[C@H](CO)N(S(C)(=O)=O)CC31CN(C(=O)Cc2cccnc2)C1	4	12	-0.2	-9.1
O=C(Nc1cc(F)ccc1F)N1CC(=O)N2[C@H](C1)[C@H](c1ccc(-c3cccc(F)c3)cc1)[C@@H]2CO	-9	-51	25	0.9
C/C=C/c1ccc([C@@H]2[C@@H](CO)N3C(=O)CN(C(=O)c4ccccc4)C[C@H]23)cc1	-1	2	-5.0	0.5
COc1ccc(NC(=O)N2CC(=O)N3[C@H](C2)[C@@H](c2ccc(/C=C/c4ccccc4)cc2)[C@@H]3CO)cc1	-1	1	13	4.4
Cc1noc(C)c1NC(=O)N(C)C[C@H]1OCCCC[C@@H](C)Oc2ccc(NC(=O)c3ccccc3)cc2C(=O)N([C@H](C)CO)C[C@H]1C	-3	-4	-3.6	-3.3
C[C@@H]1CCCCO[C@H](CN(C)S(=O)(=O)c2ccc(Cl)cc2)[C@@H](C)CN([C@H](C)CO)C(=O)c2cc(NC(=O)Nc3cccc4ccccc34)ccc2O1	3	5	1.7	-4.0
C/C=C/c1ccccc1[C@H]1[C@@H](C#N)N(C(=O)CN2CCOCC2)[C@H]1CO	6	20	-3.7	-1.1
Cc1noc(C)c1NC(=O)Nc1ccc2c(c1)C(=O)N([C@H](C)CO)C[C@H](C)[C@H](CN(C)S(=O)(=O)c1ccccc1)OCCCC[C@H](C)O2	-5	-3	0.2	2.9
CN1c2ccc(C#Cc3cccnc3)cc2[C@H]2[C@H](CCN2C(=O)C2CCCC2)[C@H]1CO	6	-2	6.7	16
CO[C@H]1CN(C)C(=O)c2ccc(NC(=O)Nc3ccccc3Cl)cc2OC[C@H](C)NC[C@@H]1C	-3	7	0.7	0.5
O=C(Cc1ccccn1)N1CC(=O)N2[C@H](C1)[C@H](c1ccc(-c3ccc(F)cc3)cc1)[C@@H]2CO	0	-2	-0.6	12
CC(C)CC#Cc1ccc([C@@H]2[C@@H](CO)N3C(=O)CN(S(=O)(=O)c4ccccc4)C[C@@H]23)cc1	1	-19	25	-0.9
O=C(C[C@@H]1C[C@@H]2c3cc(NC(=O)C4CCC4)ccc3O[C@@H]2[C@H](CO)O1)NCC(F)(F)F	2	3	-0.5	1.0
COc1ccc(-c2ccc([C@@H]3[C@@H](CO)N4C(=O)CN(C(=O)C5CCOCC5)C[C@H]34)cc2)cc1	1	11	-5.4	1.4
COc1ccccc1NC(=O)N[C@H]1CC[C@@H](CCNS(=O)(=O)c2ccc(C)cc2)O[C@H]1CO	1	-3	-1.2	-3.3
O=C(O)[C@H]1[C@H](CO)[C@H]2Cn3c(ccc(/C=C/c4ccccc4)c3=O)[C@H]2N1C(=O)C1CCCC1	0	6	-1.0	-7.5
C[C@@H]1CCCCO[C@H](CN(C)S(C)(=O)=O)[C@@H](C)CN([C@@H](C)CO)C(=O)c2cc(NC(=O)c3ccccc3)ccc2O1	-2	0	0.4	-3.2
CC=Cc1ccc2n(c1=O)C[C@H]1[C@H](CO)[C@@H](C(=O)N3CCCCC3)[C@@H]2N1C(=O)C1CC1 (mixture of isomers)	1	-2	1.1	-1.3
CCNC(=O)[C@@H]1[C@@H](CO)[C@@H]2Cn3c(ccc(C4=CCCC4)c3=O)[C@H]1N2S(=O)(=O)c1cn(C)cn1	1	2	0.5	-5.3
C/C=C/c1ccccc1[C@H]1[C@H](C#N)N(C(C)=O)[C@H]1CO	3	1	0.8	-0.4
CNC[C@H]1Oc2ccc(NS(=O)(=O)c3ccc(C)cc3)cc2CC(=O)N([C@H](C)CO)C[C@H]1C	4	2	-1.6	1.4
CCCN1[C@@H]2c3cccc(=O)n3C[C@H]1[C@H](CO)[C@H]2C(=O)N[C@@H](C)c1ccccc1	3	1	0.1	-2.7
CCN1[C@H](C(=O)NCCCN(C)C)[C@@H](CO)[C@@H]2Cn3c(ccc(-c4ccccc4OC)c3=O)[C@@H]21	1	10	-0.5	-11

Reprinted at random: 4 entries already listed.
SMILES	rRNA inh HTS	rRNA inh HTS OD600	rRNA inh HTS RFP	MLL AF4-AF9 inh
CCN1[C@H](C(=O)NCCCN(C)C)[C@@H](CO)[C@@H]2Cn3c(ccc(-c4ccccc4OC)c3=O)[C@@H]21	1	10	-0.5	-11
COc1ccc(-c2ccc([C@@H]3[C@@H](CO)N4C(=O)CN(C(=O)C5CCOCC5)C[C@H]34)cc2)cc1	1	11	-5.4	1.4
CC=Cc1ccc2n(c1=O)C[C@H]1[C@H](CO)[C@@H](C(=O)N3CCCCC3)[C@@H]2N1C(=O)C1CC1 (mixture of isomers)	1	-2	1.1	-1.3
CNC[C@H]1Oc2ccc(NS(=O)(=O)c3ccc(C)cc3)cc2CC(=O)N([C@H](C)CO)C[C@H]1C	4	2	-1.6	1.4

More structures.
SMILES	rRNA inh HTS	rRNA inh HTS OD600	rRNA inh HTS RFP	MLL AF4-AF9 inh
Cc1ccc(S(=O)(=O)N(C)C[C@H]2OCCCC[C@@H](C)Oc3ccc(NC(=O)CCC(F)(F)F)cc3C(=O)N([C@@H](C)CO)C[C@@H]2C)cc1	1	1	-0.7	6.2
CN(C)C(=O)c1cccc(-c2ccccc2[C@H]2[C@@H](C#N)N(C(=O)C3CCCC3)[C@H]2CO)c1	2	-2	-1.1	-3.2
COc1ccc(C#Cc2ccc([C@H]3[C@H]4CN(C(=O)c5ccncc5)CC(=O)N4[C@H]3CO)cc2)cc1	-3	6	-0.3	-4.1
CCC(=O)N1[C@@H]2c3cccc(=O)n3C[C@H]1[C@H](CO)[C@H]2C(=O)NC1CCCCC1	0	9	-0.5	-2.5
N#C[C@@H]1[C@@H](c2ccc(C3=CCCCC3)cc2)[C@@H](CO)N1C(=O)NC1CCCC1	2	0	0.5	-7.8
CO[C@H]1CN(C)C(=O)c2ccc(NC(=O)C3CC3)cc2OC[C@H](C)NC[C@@H]1C	0	-1	-1.7	-11
C[C@H]1CN([C@@H](C)CO)C(=O)c2c(c3ccccc3n2C)-c2ccccc2CO[C@@H]1CN(C)Cc1ccc(Cl)c(Cl)c1	6	10	-0.4	-1.4
Cc1cc(C(=O)N2CCN(S(=O)(=O)c3ccc(C)c(C)c3)CC2)no1	18	9	0.8	-0.8
C[C@@H]1CCCCO[C@@H](CN(C)S(=O)(=O)c2ccc(F)cc2)[C@H](C)CN([C@H](C)CO)C(=O)c2cc(NS(=O)(=O)c3ccc(Cl)cc3)ccc2O1	5	-8	0.1	-1.0
C[C@@H]1CN([C@@H](C)CO)C(=O)c2c(c3ccccc3n2C)-c2ccccc2CO[C@H]1CN(C)C(=O)Nc1ccccc1C(F)(F)F	3	7	1.0	4.9

Reformatted with each value named: entries from further up
> C[C@@H]1CN([C@@H](C)CO)C(=O)c2c(c3ccccc3n2C)-c2ccccc2CO[C@H]1CN(C)C(=O)Nc1ccccc1C(F)(F)F
- rRNA inh HTS: 3
- rRNA inh HTS OD600: 7
- rRNA inh HTS RFP: 1.0
- MLL AF4-AF9 inh: 4.9
> N#C[C@@H]1[C@@H](c2ccc(C3=CCCCC3)cc2)[C@@H](CO)N1C(=O)NC1CCCC1
- rRNA inh HTS: 2
- rRNA inh HTS OD600: 0
- rRNA inh HTS RFP: 0.5
- MLL AF4-AF9 inh: -7.8

Screening results: PubChem, Broad Institute

Not all compounds are listed; count on the stated rates, not on these rows.
